# From PubChem BioAssay
# 2A StopGo: lowers the luciferase signal of an FMDV 2A StopGo reporter; 1.2% of 410,000 active; human cells with a luciferase reporter of 2A StopGo recoding; control for the full effect not named in the record; Potency, µM (doses to about 57.9 µM), for the others: at the highest dose signal change, negative = less light; active = well fitted falling curve with a large enough effect; inconclusive = small, poorly fitted or top-dose-only effect; inactive = no such curve, though single readings can be large or run the other way; tested in HEK293T cells; further: on the % scale 0 is the no-effect control and ±100 the full control effect; nearly all actives have a fitted effect of over 45% in size; luciferase light after 4 h
# LASV entry inh: Lassa virus entry inhibition | Lassa virus pseudotype entry inhibition, cell reporter; control for the full effect not named in the record | Potency, µM (highest dose often 37.9 µM), for inactives: top-dose activity change, negative = inhibition, hits mostly inhibitors | 1.2% of 300,000 active | AID 540256; active means well fitted inhibition curve with a large enough effect; inconclusive means small, poorly fitted or top-dose-only effect, or effect the other way; inactive means flat fitted curve, though single readings scatter; tested in HEK293 cells; further: on the % scale 0 is the no-effect control and ±100 the full control effect; nearly all actives have a fitted effect of over 50% in size; luciferase read-out
# MARV entry inh: Marburg virus entry inhibition; AID 540276; Marburg virus pseudotyped entry inhibition, cell reporter; control for the full effect not named in the record; about a third of the inactives were read at about 46 µM; 1.8% of 300,000 active; Potency, µM (top dose mostly 37.8 µM), inactives show at the top dose activity change, negative = inhibition, actives largely listed as inhibitors; active = well fitted inhibition curve with a large enough effect; inconclusive = small, poorly fitted or top-dose-only effect, or effect the other way; inactive = flat fitted curve, though single readings scatter; tested in HEK293 cells; about a fifth of its hits are not listed in these tables; further: on the % scale 0 is the no-effect control and ±100 the full control effect; luciferase read-out
# Cruzain Triton: inhibitors of Trypanosoma cruzi cruzain with detergent. P25779. purified cruzain, Z-FR-AMC fluorescence, 0.01% Triton. Potency, µM, for the others: max response, negative = inhibition, actives largely listed as inhibitors. 0.43% of 200,000 active. AID 1478; active means well fitted curve in the direction sought with a large enough effect; inconclusive means small, poorly fitted or top-dose-only effect, or another doubt; inactive means no such curve, though single readings can be large; an effect the other way counts as inactive or inconclusive;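 further: plate controls were neutral wells for no effect and buffer without enzyme for full effect; nearly all actives have a fitted effect of over 40% in size; top concentration of the series not given in the record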
# Target sequence (P25779 123-467 limits assumed): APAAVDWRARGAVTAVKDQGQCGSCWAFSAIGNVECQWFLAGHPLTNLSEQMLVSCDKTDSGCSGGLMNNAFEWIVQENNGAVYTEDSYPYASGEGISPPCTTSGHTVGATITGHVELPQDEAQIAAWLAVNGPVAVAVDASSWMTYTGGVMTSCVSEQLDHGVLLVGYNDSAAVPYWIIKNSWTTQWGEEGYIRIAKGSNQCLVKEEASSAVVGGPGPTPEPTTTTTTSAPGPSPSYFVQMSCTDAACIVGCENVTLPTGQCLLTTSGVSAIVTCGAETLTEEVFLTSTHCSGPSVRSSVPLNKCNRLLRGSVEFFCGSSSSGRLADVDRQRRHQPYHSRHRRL
#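 15 min RT preincubation of 1.5 nM cruzain with compound, then 2 uM Z-FR-AMC added; kinetic AMC fluorescence, 60 s delta. Triton X-100 0.01%, pH 5.5.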
# NS1 inh: inhibitors of influenza NS1 protein function; S. cerevisiae slowed by influenza A NS1, growth recovery by OD600; Potency, µM (series often up to 46.1 µM), without a hit: at the top dose activity, positive = more growth; 0.4% of 270,000 active; further: actives are rising curves; nearly all actives have a fitted effect of over 50% in size
#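 A cell-based growth assay was used: compounds that relieve NS1-induced slow growth of budding yeast raise OD600. Assay medium was yeast nitrogen base with ammonium sulphate and -URA supplement, pH 6.0, with 2% galactose.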
# SARS PLpro yeast: inhibitors of SARS-CoV papain-like protease in yeast; S. cerevisiae expressing SARS-CoV PLpro, growth rescue; control for the full effect not named in the record; Potency, µM (doses to about 32.9 µM), for inactives: at the highest dose activity, positive = growth rescue; 0.19% of 330,000 active; AID 485353; further: 0% is about no effect; nearly all actives have a fitted effect of over 55% in size; growth read by luminescence after 48 h
# Cruzain noTriton: blocks cruzain activity in detergent-free assay | 2.3% of 200,000 active | P25779 | AID 1476 | Potency, µM, without a hit: max response, negative = inhibition, actives largely listed as inhibitors | purified cruzain, Z-FR-AMC fluorescence, no detergent; active means well fitted curve in the direction sought with a large enough effect; inconclusive means small, poorly fitted or top-dose-only effect, or another doubt; inactive means no such curve, though single readings can be large; an effect the other way counts as inactive or inconclusive;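 further: plate controls were enzyme without inhibitor for no effect and buffer without enzyme for full effect; nearly all actives have a fitted effect of over 40% in size; top concentration of the series not given in the record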
#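 Detergent-free condition (0.00005% Triton X-100) in acetate buffer pH 5.5 with DTT. 1.5 nM enzyme and compound were pre-mixed 15 min, then 2 uM Z-FR-AMC substrate added; reaction progress from fluorescence change between first and third reads (60 s).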
# RE007 growth inh: less growth of the S. pombe RE007 Vpr strain; S. pombe RE007 Vpr strain, BacTiter-Glo ATP luminescence, 24 h; control for the full effect not named in the record; Potency, µM (series often up to 92.2 µM), inactives show at the top dose activity change, negative = less growth; 0.21% of 360,000 active; active = well fitted falling curve with a large enough effect; inconclusive = small, poorly fitted or top-dose-only effect; inactive = no such curve, though single readings can be large or run the other way;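 further: on the % scale 0 is the no-effect control and ±100 the full control effect; nearly all actives have a fitted effect of over 50% in size; the assay follows cell death caused by Vpr and the record does not say whether a fall means rescue or toxicity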
#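 Fission yeast RE007 carrying one integrated HIV-1 vpr copy, seeded at OD 0.01 in PMG+AL medium with 23 nL pinned compound. Grown 24 h at 30 degrees; viability read by BacTiter-Glo luminescence after 5 min.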
# An asterisk follows results filed as active; ? = inconclusive; . = no result given; [ ] = remark or other dose. Unless noted, the call rests on the fitted dose curve; in most records, active means well fitted rising curve with a large enough effect; inconclusive means small, poorly fitted or top-dose-only effect; inactive means no such curve, though single readings can be large or run the other way. Potency means the concentration at half of the fitted maximal effect.
# Codes: A = 2A StopGo; B = LASV entry inh; C = MARV entry inh; D = Cruzain Triton; E = NS1 inh; F = SARS PLpro yeast; G = Cruzain noTriton; H = RE007 growth inh
COc1cc(C2OCC3C(c4ccc(OC5OC(CO)C(O)C(O)C5O)c(OC)c4)OCC23)ccc1O (stereo not given)
  A = -21% | B = . | C = . | D = . | E = 0% | F = 1% | G = . | H = -11%
CC(C)(C)CC(C)(C)NCC(O)COCCOc1ccc(Br)cc1 (stereo not given)
  A = -19% | B = 13µM* | C = 4.6µM* | D = -2.0% | E = -13% | F = -22% | G = 4% | H = 7%
O=C(CSc1ccc(Cl)cc1)NCc1ccco1
  A = 35%[activator] | B = . | C = . | D = . | E = -3% | F = -1% | G = . | H = -9%
CCC(=O)N(Cc1ccc(C)cc1)Cc1cc2cc3c(cc2[nH]c1=O)OCO3
  A = -22% | B = 6% | C = ? | D = 0.7% | E = 0% | F = 9%[6.58 µM] | G = -24% | H = 0%
COc1ccc(CCNC(=O)c2cc3c(=O)oc4ccc(C)cc4c3s2)cc1OC
  A = -26% | B = 14%[46.1 µM] | C = -17%[46.1 µM] | D = 2.0% | E = . | F = . | G = 13% | H = .
COc1cc(SC#N)ccc1N=Cc1c(C)[nH]n(-c2cccc3ccccc23)c1=O
  A = -1% | B = 13% | C = 13% | D = -4.8% | E = -2% | F = 1% | G = 25µM* | H = -7%
N#Cc1ccsc1NC(=O)c1cccc(-n2cnnn2)c1
  A = 28% | B = . | C = 2%[46.1 µM] | D = . | E = 2% | F = -4% | G = . | H = 0%
Cc1ccc(NC(=O)CC2S/C(=N/N=C/c3c[nH]c4ccccc34)NC2=O)cc1 (stereo not given)
  A = 1% | B = ? | C = 16% | D = -15% | E = 8% | F = -26% | G = 20µM* | H = -6%
C=CCn1c(C)cc(-c2csc(NC)n2)c1C
  A = 4% | B = -2% | C = ? | D = . | E = . | F = -2% | G = . | H = -3%
COc1ccc(N(C(C)=O)S(=O)(=O)c2cccs2)cc1
  A = -4% | B = 8% | C = 0% | D = 1.7% | E = -1% | F = 13% | G = 16% | H = -8%
Cc1cccc(C)c1NC(=O)N1CCCC1C(=O)Nc1ccc(-n2cnnn2)cc1 (stereo not given)
  A = 4% | B = -2% | C = ? | D = . | E = 0% | F = 1% | G = . | H = -3%
Cc1oc(-c2ccc(Cl)cc2)nc1CN1CCCC(C(=O)NCc2ccco2)C1 (stereo not given)
  A = ? | B = -1% | C = ? | D = 1.8% | E = -2% | F = 4% | G = 7% | H = -8%
O=C(CN1CCNCC1)NCCSc1ccc(Cl)cc1
  A = -15% | B = 10%[46.1 µM] | C = -2%[46.1 µM] | D = . | E = . | F = 20% | G = . | H = -1%
O=C(CN1CCN(C(=O)C2CC2)CC1)Nc1ccc(Cl)cc1F
  A = -8% | B = ? | C = -6% | D = . | E = . | F = 9% | G = . | H = -5%
CCCCN1CCCCC1C(=O)Nc1c(C)cc(C)cc1C (stereo not given)
  A = 7% | B = 11% | C = ? | D = 4.6% | E = 4% | F = 3% | G = -8% | H = 12%
Cc1ccc2oc(-c3ccc(C)c(NC(=O)c4ccc(-c5ccccc5[N+](=O)[O-])o4)c3)nc2c1
  A = 37%[activator] | B = ? | C = ? | D = 1.3% | E = . | F = . | G = -7% | H = .
COc1ccccc1NS(=O)(=O)c1ccc(NN=C2CCCC2)c([N+](=O)[O-])c1
  A = -22% | B = -16% | C = ? | D = -7.4% | E = ? | F = 18% | G = ? | H = 0%
O=C(N/N=C/C(Br)=C/c1ccccc1)c1cc(-c2ccco2)[nH]n1
  A = -12% | B = ? | C = ? | D = . | E = 0% | F = -3% | G = . | H = -23%
CC(C)OC(=O)c1nnc(Cc2ccc(Cl)cc2)o1
  A = -19% | B = 1% | C = 2% | D = 0.7% | E = -18% | F = -13% | G = 2% | H = -8%
COC(=O)c1ccccc1NC(=O)CCn1nc(C)c2c(C)n(-c3ccccc3)nc2c1=O
  A = -26% | B = 2%[46.1 µM] | C = . | D = -4.1% | E = . | F = . | G = 6% | H = .
S=c1[nH]nc(COc2ccccc2)n1C1CCCCC1
  A = -10% | B = -2% | C = 6% | D = 1.1% | E = 8% | F = -2% | G = -2% | H = 14%
CC1CCN(S(=O)(=O)c2ccc3c(c2)c(=O)c(C(=O)NCCc2ccccc2)cn3C)CC1
  A = -3% | B = 19%[46.1 µM] | C = -1%[46.1 µM] | D = -1.3% | E = . | F = . | G = -10% | H = .
O=C(c1ccccc1)c1ccccc1C(=O)N1CCN(C(=O)c2ccccc2)CC1
  A = -1% | B = ? | C = -1%[46.1 µM] | D = . | E = -2% | F = 0% | G = . | H = -8%
O=C(CSc1ccc(Cl)cc1)Nc1ccc(N2CCN(C(=O)c3ccc(Cl)cc3)CC2)cc1
  A = -3% | B = ? | C = ? | D = 4.2% | E = 12% | F = 3% | G = ? | H = -18%
COc1ccc(S(=O)(=O)Nc2c(C(=O)O)[nH]c3ccccc23)cc1OC
  A = 28% | B = 2% | C = 27% | D = -6.5% | E = 8% | F = 8% | G = -20% | H = -9%

# Continued:
# Values run as follows: 2A StopGo | LASV entry inh | MARV entry inh | Cruzain Triton | NS1 inh | SARS PLpro yeast | Cruzain noTriton | RE007 growth inh
> Cc1ccc(-c2nnc(SCC(=O)Nc3ccc(N4CCOCC4)cc3)o2)cc1
 : -3% | -15% | 13% | 3.2% | 4% | -3% | -9% | -16%
> CC1=C(c2ccc(C)cc2)S(=O)(=O)NC1=NCc1ccccc1Cl
 : 72%[activator] | 2%[46.1 µM] | -1%[46.1 µM] | -8.0% | . | . | -17% | .
> O=C(NCCc1ccccc1)c1c(O)c2cccc3c2n(c1=O)CC3
 : 11% | -14% | 8% | 3.4% | -6% | -1% | ? | 1%
> O=C(NNC(=S)NC(=O)c1cccs1)c1ccc(NC(=O)c2ccccc2)cc1
 : -14% | ? | ? | 0.9% | ? | 5% | 20µM* | -10%
> CCOC(=O)c1ccc(N2Cc3ccccc3C2=N)cc1
 : 25% | 27% | 0% | 0.6% | -6% | -10% | -21% | -24%
> COCC1CCCCN1C(=O)C1CCN(c2nc(-c3ccccc3)nc3c2CCC3)CC1 (stereo not given)
 : -20% | . | . | . | -16% | -3% | . | -1%
> O=C(NCc1ccccn1)C1CCCCC1
 : 14% | 3% | 5%[46.1 µM] | . | . | 2% | . | -17%
> Cc1c(CCC(=O)O)c(=O)oc2cc3occ(-c4ccc(Br)cc4)c3cc12
 : -23% | -2% | -22%[46.1 µM] | . | 7% | -6% | . | -19%
> COC(=O)CCc1nc2ccccc2nc1OC
 : 8% | -17% | 1% | . | 1% | -1% | . | 5%
> CCn1c(Cl)c(C=O)s/c1=N\S(=O)(=O)c1ccccc1
 : ? | . | . | . | -31% | -3% | . | -23%
> CC(=O)Nc1ccc2nc(NS(=O)(=O)c3ccc(C)cc3)sc2c1
 : 88%[activator] | 21% | ? | . | 13% | 0% | . | 17%
> COc1cc(NC(=O)Cc2nn(C)c(=O)c3ccccc23)cc(OC)c1OC
 : -30% | 4% | -29% | 1.6% | -8% | 10% | 8% | 15%
> COC(=O)Cc1ccc2c3ccccc3n(C)c2c1
 : . | 5% | 4% | -5.8% | -87% | -13% | 3% | -12%
> CCOc1ccc2nc(NCCNC(=S)NCCCN(C)C)c(C#N)cc2c1
 : -4% | ? | ? | . | 4% | 0% | . | 6%
> CCO[C@@H]1OC(C(=O)N2CCN(Cc3ccc4c(c3)OCO4)CC2)=C[C@H](C2CC2)[C@H]1CCCO
 : -15% | . | . | . | -2% | 0% | . | 0%

# Compound profiles, from the list above. Order of values: 2A StopGo, LASV entry inh, MARV entry inh, Cruzain Triton, NS1 inh, SARS PLpro yeast, Cruzain noTriton, RE007 growth inh
# `Cc1c(CCC(=O)O)c(=O)oc2cc3occ(-c4ccc(Br)cc4)c3cc12` as listed: -23%, -2%, -22%[46.1 µM], ., 7%, -6%, ., -19%
# `COC(=O)CCc1nc2ccccc2nc1OC` as listed: 8%, -17%, 1%, ., 1%, -1%, ., 5%

# Five consecutive records already listed, for reference:
# Values run as follows: 2A StopGo | LASV entry inh | MARV entry inh | Cruzain Triton | NS1 inh | SARS PLpro yeast | Cruzain noTriton | RE007 growth inh
> CC(=O)Nc1ccc2nc(NS(=O)(=O)c3ccc(C)cc3)sc2c1
 : 88%[activator] | 21% | ? | . | 13% | 0% | . | 17%
> COc1cc(NC(=O)Cc2nn(C)c(=O)c3ccccc23)cc(OC)c1OC
 : -30% | 4% | -29% | 1.6% | -8% | 10% | 8% | 15%
> COC(=O)Cc1ccc2c3ccccc3n(C)c2c1
 : . | 5% | 4% | -5.8% | -87% | -13% | 3% | -12%
> CCOc1ccc2nc(NCCNC(=S)NCCCN(C)C)c(C#N)cc2c1
 : -4% | ? | ? | . | 4% | 0% | . | 6%
> CCO[C@@H]1OC(C(=O)N2CCN(Cc3ccc4c(c3)OCO4)CC2)=C[C@H](C2CC2)[C@H]1CCCO
 : -15% | . | . | . | -2% | 0% | . | 0%

# Remaining list, next part:
# Values run as follows: 2A StopGo | LASV entry inh | MARV entry inh | Cruzain Triton | NS1 inh | SARS PLpro yeast | Cruzain noTriton | RE007 growth inh
> c1ccc(CC2CCN(c3nc4ccccc4n4cnnc34)CC2)cc1
 : -18% | 9% | ? | -11% | 20% | -9% | 0% | 22%
> COc1ccc(CNCC(O)COc2cccc3c2OC(C)(C)C3)cc1 (stereo not given)
 : -30% | ? | ? | . | . | -1% | . | 15%
> Cc1onc(-c2c(Cl)cccc2Cl)c1C(=O)N=S(C)(=O)c1ccccc1 (stereo not given)
 : -13% | 10% | ? | . | 4% | 0% | . | 4%
> COc1cc(NC(=O)CCCC(=O)OCC(F)(F)C(F)F)nc(OC)n1
 : . | 5% | ? | -4.4% | -38% | 9% | 2% | -2%
> CCOc1ccc(/C=C(\C#N)C(=O)c2c(C)[nH]c3ccccc23)cc1OC
 : -17% | -6% | 5% | -7.6% | -1% | 0% | ? | 2%
